NPYLR7 ag – mosquito NPYLR7 agonism. HEK293T NPYLR7/Galpha15, GCaMP6s calcium fluorescence. activation, % at 10 µM. 270,000 tested, 0.15% active. AID 1259423; in the data active = activation above about 40%;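 also: 0% = vehicle and 100% = reference agonist at the receptor; some compounds past the cut are filed as inactive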
NPYLR7 ag max-min – also measured in NPYLR7 ag; calls as there; activation, %; measured here: Max-Min RFU normalised activation; some inactives read as strong as hits;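 span of the calcium signal over five minutes; 0% = vehicle and 100% = native peptide agonist; compound fluorescence can raise it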
The depositor's hits bear a star. These rows are one share of the data; the hit share may differ from the screen's.

SMILES | NPYLR7 ag | NPYLR7 ag max-min
CSc1cccc(NC(=O)c2cccnc2Oc2cccc([N+](=O)[O-])c2)c1 | 1 | -3
COC(C)C(=O)Nc1cccc(NC(C)c2ccc(F)cc2F)c1 (stereo not drawn) | 9 | 2
CC(=O)Cn1c(=O)c2c(nc3n(C(C)c4ccccc4)c(C)c(C)n23)n(C)c1=O (stereo not drawn) | 15 | 8
Cc1cccc(Nc2nc(-c3ccncc3)cs2)c1 | -9 | -14
COC(=O)CCCCC(=O)Nc1ccc(-c2cccc(-c3cccc(OC)c3)n2)cc1 | -1 | 7
CCOCC(O)CN(C)CC(C)c1ccccc1 (stereo not drawn) | -1 | -9
COc1ccccc1-c1nnc2ccc(OCCNS(=O)(=O)c3cccnc3)nn12 | -5 | -4
CCOC(=O)C1C(C)=NC(=O)NC1/C=C/c1ccccc1 (stereo not drawn) | 1 | 35
CCCCc1ccc(S(=O)(=O)c2cnc(SCC(=O)NCc3ccccc3)[nH]c2=O)cc1 | -1 | -6
COc1ccccc1C1CC(c2ccccc2F)=NN1C(=O)CN(C)C1CCCCC1 (stereo not drawn) | -4 | 19
CC(C)c1ccc(/C=C/C(=O)N2CCC(NS(C)(=O)=O)CC2)cc1 | 12 | 12
CN(CC(O)COCc1ccccc1NC1CCCC1)C1CCCCC1 (stereo not drawn) | 6 | 1
CNc1snc(C)c1C(=O)OCc1cc(C(=O)OC)c(C)o1 | -2 | -3
COCCN(CCOC)S(=O)(=O)c1cc(Cl)sc1Cl | 9 | 7
[O-][n+]1ccccc1SCc1nnc(-c2ccccc2Br)o1 | -9 | -11
COc1ccc(C(=O)NN2C(=O)C(=Cc3ccc(OC(F)F)cc3)SC2=S)cc1OC | -2 | -6
O=C(CSc1c(-c2ccccc2)[nH]c2ccccc12)N1CCOCC1 | 0 | 0
Cc1ccccc1CC1(C)C(=O)Nc2cc(-c3ccccc3Cl)ccc21 (stereo not drawn) | 3 | 2
CCCn1cnnc1CN(C)Cc1sccc1C | 16 | 3
O=C(Cn1cnc2c(nnn2Cc2ccc(Cl)cc2)c1=O)N1CCN(c2ccccc2)CC1 | 7 | 7
Cc1cccc(-n2nc(C(=O)Nc3cccc(F)c3)c(=O)n(Cc3ccccc3F)c2=O)c1 | 15 | 13
O=c1ccc(-c2cccc(Br)c2)nn1Cc1ccc(F)cc1 | 15 | 7
CC(c1cccs1)S(=O)Cc1ccc(C#N)cc1 (stereo not drawn) | -2 | -4
O=C(c1cncn1-c1ccc(F)cc1)N1CCN(S(=O)(=O)c2ccccc2C(F)(F)F)CC1 | -4 | -8
CCc1c(C)nc(-n2nc(C)cc2C)n(CC(=O)Nc2ccc(F)cc2F)c1=O | 0 | -2
O=C(CCc1ccc(S(=O)(=O)N2CCOCC2)cc1)NCCc1cccc(Cl)c1 | 1 | 8
O=C(Nc1ccc(CCC(F)(F)F)cc1)C1CCCN1C(=O)c1ccc2c(c1)OCO2 (stereo not drawn) | 6 | 5
CN(C)C(=O)c1ccc(-c2cc3c(Nc4cccc(NS(C)(=O)=O)c4)nccc3n2C)cc1 | -5 | -11
C[C@@H]1CN(CCC(=O)N2CCC3(CCN(C)CC3)C2)C[C@H](C)O1 | 26 | 13
CC(=O)Nc1ccc(-c2ccnc3c2CC(C)(C(=O)Nc2ccccc2)O3)cc1 (stereo not drawn) | 8 | 15
Cc1nc(C(F)(F)F)ccc1C(=O)NCc1ccccc1O | 0 | -1
CC1Oc2ccccc2N(Cc2ccc(F)cc2)C1=O (stereo not drawn) | 5 | 1
Cc1ccc(-n2c(SCc3ccc(F)cc3)nnc2C(C)NC(=O)COCc2ccccc2)cc1 (stereo not drawn) | 21 | 15
COc1ccc(C(c2c(O)cc(C)[nH]c2=O)c2c(O)cc(C)[nH]c2=O)cc1 | 7 | 12
COc1nc2cn(C3CCCC3)c(O)c2cc1CNC(=O)CC1C=CCC1 (stereo not drawn) | 4 | -2
CN1C(=O)CON=C1c1ccccn1 | 4 | 2
O=C(NC(c1ccccc1)c1ccccc1)C1CCN(c2nc(Cc3ccccc3)ns2)CC1 | -1 | 0
Nc1nc2c(c(Nc3ccccc3)n1)C(=O)CC(c1ccccc1)C2 (stereo not drawn) | 3 | 2
Cc1ccc(-n2nc(C(=O)NC3CC3)c3c2CCC3)cc1 | 5 | 5
CCC(C)[C@H](NC(=O)OC(C)(C)C)C(=O)N/N=C\c1ccc2cc(OC)ccc2n1 (stereo partly drawn) | 2 | 66
Cc1ccccc1C(=O)Nc1cnc2sc3ccccc3n2c1=O | 0 | 9
COc1ccc(CN(Cc2ccco2)C(=O)NC(C)C)cc1OS(=O)(=O)c1ccc(NC(C)=O)cc1 | 26 | 17
Cc1cc(C)cc(C(=O)NCCc2cc3c(C)ccc(C)c3[nH]c2=O)c1 | 0 | 13
O=c1c2c(n3cnnc3n1-c1ccccc1)-c1ccccc1CC21CCCCC1 | 3 | -3
COc1ccc(-n2c(SCc3ccccc3C)nc3c(c2=O)SCC3)cc1OC | -2 | -4
CCCCNC(=O)C1(C)CCN1Cc1cc(C)ccc1C (stereo not drawn) | 4 | 0
C=CCOCC(O)CN(CC(=O)N1CCc2sccc2C1COc1cccc(F)c1)CC1CC1 (stereo not drawn) | -5 | 0
COc1ccccc1OCCCOc1ccc(F)cc1 | -4 | 13
c1cc(NCC2CCOCC2)cc(-n2cccn2)c1 | 8 | 10
O=C(CN1CCN(S(=O)(=O)c2ccc(F)c(F)c2)CC1)NC1CCCCC1 | -5 | -4
N#Cc1ccc(CS(=O)(=O)NC(=O)c2ccc3c(c2)COC3)cc1 | -1 | -1
COc1ccccc1Nc1ncccc1C(=O)NC1CCCCNC1=O (stereo not drawn) | 4 | 1
C=CCNC(CC(=O)Nc1ccc(O)cc1)C(=O)O (stereo not drawn) | -1 | 3
O=c1cccnn1CCNS(=O)(=O)c1ccc(F)c(C(F)(F)F)c1 | 0 | 0
COCc1cc(C)nc(OCC(=O)N/N=C\c2cc(Br)ccc2O)c1C#N | -9 | -10
O=C(NC(C(=O)N1CCCC1)C1CCN(C(=O)c2cccc(F)c2)CC1)C1CC1 (stereo not drawn) | 12 | 15
CCOC(=O)CSc1nc(C)cc(=O)[nH]1 | 2 | -1
CCOC(=O)c1nn(-c2ccccc2)c(=O)cc1OS(=O)(=O)c1cccs1 | 5 | 2
CCOC(=O)C1CCCN(C(=O)CC(c2ccccc2)c2cn(Cc3ccccc3)c3ccc([N+](=O)[O-])cc23)C1 (stereo not drawn) | 20 | 20
NC(=O)c1c(SCc2c(F)cccc2F)sc2c(O)cc(=O)[nH]c12 | 3 | 2

A portion of the results above:
SMILES | NPYLR7 ag | NPYLR7 ag max-min
COc1nc2cn(C3CCCC3)c(O)c2cc1CNC(=O)CC1C=CCC1 (stereo not drawn) | 4 | -2
CN1C(=O)CON=C1c1ccccn1 | 4 | 2
O=C(NC(c1ccccc1)c1ccccc1)C1CCN(c2nc(Cc3ccccc3)ns2)CC1 | -1 | 0
Nc1nc2c(c(Nc3ccccc3)n1)C(=O)CC(c1ccccc1)C2 (stereo not drawn) | 3 | 2
Cc1ccc(-n2nc(C(=O)NC3CC3)c3c2CCC3)cc1 | 5 | 5
CCC(C)[C@H](NC(=O)OC(C)(C)C)C(=O)N/N=C\c1ccc2cc(OC)ccc2n1 (stereo partly drawn) | 2 | 66
Cc1ccccc1C(=O)Nc1cnc2sc3ccccc3n2c1=O | 0 | 9
COc1ccc(CN(Cc2ccco2)C(=O)NC(C)C)cc1OS(=O)(=O)c1ccc(NC(C)=O)cc1 | 26 | 17
Cc1cc(C)cc(C(=O)NCCc2cc3c(C)ccc(C)c3[nH]c2=O)c1 | 0 | 13
O=c1c2c(n3cnnc3n1-c1ccccc1)-c1ccccc1CC21CCCCC1 | 3 | -3
COc1ccc(-n2c(SCc3ccccc3C)nc3c(c2=O)SCC3)cc1OC | -2 | -4
CCCCNC(=O)C1(C)CCN1Cc1cc(C)ccc1C (stereo not drawn) | 4 | 0
C=CCOCC(O)CN(CC(=O)N1CCc2sccc2C1COc1cccc(F)c1)CC1CC1 (stereo not drawn) | -5 | 0
COc1ccccc1OCCCOc1ccc(F)cc1 | -4 | 13
c1cc(NCC2CCOCC2)cc(-n2cccn2)c1 | 8 | 10
O=C(CN1CCN(S(=O)(=O)c2ccc(F)c(F)c2)CC1)NC1CCCCC1 | -5 | -4
N#Cc1ccc(CS(=O)(=O)NC(=O)c2ccc3c(c2)COC3)cc1 | -1 | -1
COc1ccccc1Nc1ncccc1C(=O)NC1CCCCNC1=O (stereo not drawn) | 4 | 1
C=CCNC(CC(=O)Nc1ccc(O)cc1)C(=O)O (stereo not drawn) | -1 | 3
O=c1cccnn1CCNS(=O)(=O)c1ccc(F)c(C(F)(F)F)c1 | 0 | 0
COCc1cc(C)nc(OCC(=O)N/N=C\c2cc(Br)ccc2O)c1C#N | -9 | -10
O=C(NC(C(=O)N1CCCC1)C1CCN(C(=O)c2cccc(F)c2)CC1)C1CC1 (stereo not drawn) | 12 | 15
CCOC(=O)CSc1nc(C)cc(=O)[nH]1 | 2 | -1
CCOC(=O)c1nn(-c2ccccc2)c(=O)cc1OS(=O)(=O)c1cccs1 | 5 | 2
CCOC(=O)C1CCCN(C(=O)CC(c2ccccc2)c2cn(Cc3ccccc3)c3ccc([N+](=O)[O-])cc23)C1 (stereo not drawn) | 20 | 20
NC(=O)c1c(SCc2c(F)cccc2F)sc2c(O)cc(=O)[nH]c12 | 3 | 2

The list goes on.
SMILES | NPYLR7 ag | NPYLR7 ag max-min
C=CCn1c(SCc2csc(C)n2)nc2sc(C)c(C)c2c1=O | -1 | 3
Cc1cc(SCC(=O)Nc2ccccc2)n2ncc(-c3ccccc3)c2n1 | 0 | -2
COc1cc(-c2nc(C=Nc3ccc4ccccc4c3)c(O)o2)cc(OC)c1OC | -3 | -8
O=C(CN1CN(c2ccccc2)C2(CCN(C(=O)Nc3cccc(Br)c3)CC2)C1=O)Nc1ccc(F)cc1 | 26 | 28
CCN1C(=O)c2ccc(C(=O)NCCC3CC4CCC3C4)cc2S1(=O)=O (stereo not drawn) | 1 | 9
CCOc1ccccc1C(=O)Nc1ccc(N2CCN(C(=O)c3cc(C)on3)CC2)nc1 | 1 | 15
CC(C)N(C)S(=O)(=O)Nc1cccc(OC(F)(F)F)c1 | 0 | -2
CC(C(=O)Nc1cccc(Cl)c1Cl)N1CCN(Cc2ccco2)CC1 (stereo not drawn) | -2 | 2
Cc1cc(C(=O)N2CCC2(C)C(=O)Nc2nccs2)nn1C (stereo not drawn) | -1 | -3
Nc1nc2ncc(=O)[nH]c2c(=O)[nH]1 | -6 | -14
Cc1nn(C)c(Cl)c1CN1CCN(CC(C)O)C(C)C1 (stereo not drawn) | 8 | 4
COCCCN(CC(=O)N(CCc1ccc(OC)c(OC)c1)Cc1sccc1C)C(=O)C12CC3CC(CC(C3)C1)C2 | 6 | 6

In another format: results already given.
mol: CCN1C(=O)c2ccc(C(=O)NCCC3CC4CCC3C4)cc2S1(=O)=O (stereo not drawn)
  NPYLR7 ag = 1; NPYLR7 ag max-min = 9
mol: CCOc1ccccc1C(=O)Nc1ccc(N2CCN(C(=O)c3cc(C)on3)CC2)nc1
  NPYLR7 ag = 1; NPYLR7 ag max-min = 15
mol: CC(C)N(C)S(=O)(=O)Nc1cccc(OC(F)(F)F)c1
  NPYLR7 ag = 0; NPYLR7 ag max-min = -2
mol: CC(C(=O)Nc1cccc(Cl)c1Cl)N1CCN(Cc2ccco2)CC1 (stereo not drawn)
  NPYLR7 ag = -2; NPYLR7 ag max-min = 2

Additional results:
SMILES | NPYLR7 ag | NPYLR7 ag max-min
FC(F)(F)Oc1cccc(-c2nccnc2NCc2ccc(C(F)(F)F)cc2)c1 | -5 | -6
CSc1nc(=O)cc(N)n1-c1ccc(Cl)cc1 | 0 | -1
CC(C(=O)Nc1ccc2[nH]c(=O)[nH]c2c1)N1CCOC(c2ccc(Cl)cc2)C1 (stereo not drawn) | 5 | 3
Cn1ccnc1CN1CCCC(CNC(=O)NC2CCCC2)C1 (stereo not drawn) | -5 | -5
CC(C)N1CCNC(=O)C1CC(=O)N(C)Cc1cc(C(C)(C)C)n[nH]1 (stereo not drawn) | 0 | -1
CCc1noc(CN(CC)C(=O)C(C)n2cnc3ccccc32)n1 (stereo not drawn) | 8 | 3
CC(C)Cc1cc(C(=O)NCC2(O)CCNC2)on1 (stereo not drawn) | 4 | 0
O=C(CCn1c(=O)[nH]c2ccccc2c1=O)NCCc1ccccc1Cl | -8 | -9
CN(C)CCCC(C)(O)C(Cc1ccccc1)c1ccccc1 (stereo not drawn) | -6 | -7
Cc1cc(C)c(S(=O)(=O)N(C)C(=O)c2cn(C)nc2C)c(C)c1 | 4 | 3
Cc1nn(C)c(Cl)c1CSCC(=O)N1CCCCC1C (stereo not drawn) | 3 | 3
CCCCNC(=O)N1CCN(C(=O)CCN2CCc3sccc3C2c2cccc(F)c2)CC1 (stereo not drawn) | 7 | -3
Cc1ccc(C=C2N=C(c3ccccc3OC(F)F)OC2=O)o1 | -1 | 1
O=C(O)CC(O)CC(O)C=Cc1c(C2CC2)nc2ccccc2c1-c1ccc(F)cc1 (stereo not drawn) | -6 | -11
O=C(c1cc2nc(-c3ccccc3)cc(C(F)(F)F)n2n1)N1CCN(Cc2ccccc2)CC1 | 9 | 6

Bioassay records as filed in PubChem BioAssay.
